NPYLR7 agonist: agonists of mosquito NPYLR7 receptor, primary screen, cell-based, Aedes aegypti, calcium fluorescence, mosquito biting behavior. HEK293T NPYLR7/Galpha15, GCaMP6s calcium fluorescence. activation, % at 10 µM. hit rate 0.15% among 270,000. AID 1259423, 2018; in the data active means activation above about 40%;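 further: 0% = vehicle and 100% = reference agonist at the receptor; some compounds past the cut are filed as inactive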
NPYLR7 agonist max-min: further read-out of NPYLR7 agonist, marked with its call; activation, %; measured here: Max-Min RFU normalised activation; some inactives read as strong as hits;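 span of the calcium signal over five minutes; 0% = vehicle and 100% = native peptide agonist; compound fluorescence can raise it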
Active calls of the source: *; & = joins results of further samples. This is a subset; rates above refer to the full screens.

Fields: NPYLR7 agonist, NPYLR7 agonist max-min
1) CCCCCCCC(=O)Nc1ccc(-n2nc(OCC(C)C)nc2-c2ccc(Cl)c(Cl)c2)cc1
  13.2, 22.5
2) COCCCNC(=O)CN1CCN(c2cc(C)c3cc(C)cc(C)c3n2)CC1
  2.2, 1.0
3) O=c1cc(CO)oc(CN2CCCC2)c1O
  1.9, 1.1
4) CCOC(=O)c1c(-c2ccc(OC)c(OC)c2)csc1NC(=O)CCl
  -4.9, -7.8
5) CCOc1ccccc1OC1CCN(Cc2nc(CC)cc(=O)[nH]2)CC1
  -0.2, -11.8
6) COc1ccc(OC)c(-c2nc(COc3cccnc3C)c(C)o2)c1
  14.9, 3.8
7) CCC(C)N(Cc1cc(Cl)ccc1OS(C)(=O)=O)C(=O)c1cccs1 (centres undefined)
  19.3, 28.9
8) CCCCNC(=O)N1CCCC(C(=O)c2cc(C)c(OC)c(C)c2)C1 (centres undefined)
  2.1, -0.8
9) CCC1CCc2nc(NC(=O)c3ccccc3CN3C(=O)CNC3=O)sc2C1 (centres undefined)
  9.4, 7.4
10) CCCn1ccnc1CN(C)Cc1ccc(-n2cccn2)cc1
  7.5, 2.9
11) CCC(C)NC(=O)c1c(C)c(C)c(C)n1Cc1ccccc1F (centres undefined)
  -3.8, 2.7
12) COc1cccc(COC(CN2CCN(C(=O)c3ccc(Cl)nc3)CC2)c2ccc(Cl)cc2)c1 (centres undefined)
  -1.9, 10.7
13) CCOc1ncccc1-c1cc(Cl)ccc1O
  9.1, 7.3
14) Cc1cc(C)n(CCNC(=O)CN2CCOc3ccccc3C2)c(=O)n1
  13.1, 5.7
15) COCCNC(=O)CSc1nc2ccccc2c(=O)n1C1CC1
  5.7, 5.9
16) CCOCC(O)CN1CCN(C(=O)Cn2ccccc2=O)CC1 (centres undefined)
  3.8, 2.0
17) O=C(NCc1cccnc1-n1cnc2ccccc21)c1scc2c1OCCO2
  3.1, 1.5
18) O[C@H]1Cc2ccccc2[C@H]1NCc1cccc2c1OCCCO2
  -14.5, -15.6
19) CC1(Cc2cccc(C(F)(F)F)c2)C(=O)Nc2ccc(-c3ccc(F)c(Cl)c3)cc21 (centres undefined)
  4.0, 4.4
20) COc1cc(OC)c2c(OC)c(-c3ccc4c(c3)OCO4)c(=O)oc2c1
  -5.2, -7.4
21) COCC(C)n1c(C)cc(C(=O)COc2ccc(F)cc2Cl)c1C (centres undefined)
  6.3, 5.1
22) CC(C)NC(=O)CNC(=O)COc1ccccc1C1SCCS1
  9.7, 12.9
23) CCOC(=O)c1cc(C)nn1C1CCN(C(=O)c2ccc3c(c2)OCO3)CC1
  -0.4, -0.9
24) O=C1C(=Cc2ccc3ccccc3c2)SC(=S)N1CCN1CCOCC1
  -1.5, -2.5
25) COC(=NC(=NS(=O)(=O)c1ccc(C)cc1)c1ccccc1)SC(C)C
  -2.4, -11.1
26) NC(=O)CSc1nc2cc(S(=O)(=O)N3CCOCC3)ccc2n1CCCN1CCOCC1
  5.0, 2.3
27) CC(N(C)C(=O)c1ccco1)C(C)(C)C (centres undefined)
  -1.8, -1.6
28) Cc1cccc2nc(C(=O)N3CCC(O)(CN(C)C)C3)cn12 (centres undefined)
  17.9, 14.1
29) Cc1cc(C)n(CCCC(=O)N2CCC3(CCCO3)CC2)n1
  8.8, 5.6
30) CCC(C)NCCC(=O)Nc1cccc2ccccc12 (centres undefined)
  10.5, 4.7
31) NC(=O)CC1CCCCN1C(=O)/C=C/c1ccccc1OC(F)F (centres undefined)
  0.1, -1.9
32) Cc1ccc(C(N)Cn2ccnc2)c(C)c1 (centres undefined)
  -9.3, -7.8
33) COCCN(Cc1ccc(OC)cc1)c1c(C)nc2ccc(C(=O)NCCc3c[nH]c4ccccc34)cn12
  -6.2, -11.8
34) CCN(CC)C(=O)Cn1cc(SCC(N)=O)c2ccccc21
  -2.6, -8.7
35) CC1=NN(c2ccccc2)C(=O)/C1=C\c1ccc(N)cc1
  2.3, 6.2
36) CCCCN1CCCCC1(C)C(=O)NCc1sccc1C (centres undefined)
  1.7, -0.2
37) NC[C@H]1O[C@H](O[C@H]2[C@H](O)[C@@H](O[C@H]3O[C@H](CO)[C@@H](O)[C@H](N)[C@H]3O)[C@H](N)C[C@@H]2N)[C@H](O)[C@@H](O)[C@@H]1O
  -2.6, -7.2
38) COc1ccc(-c2ccc(NS(=O)(=O)c3cc(C)c(C)cc3C)cc2)nn1
  -1.2, 10.4
39) Cc1onc(-c2ccccc2Cl)c1C(=O)NC12CC3CC(CC(C3)C1)C2
  0.9, -2.4
40) CCc1ccccc1N1C(=O)CSC1c1ccc(NC(=O)c2cc(OC)cc(OC)c2)cc1 (centres undefined)
  9.6, 9.7

Structures listed so far that contain an aryl methoxy group:
Fields: NPYLR7 agonist, NPYLR7 agonist max-min
4) CCOC(=O)c1c(-c2ccc(OC)c(OC)c2)csc1NC(=O)CCl
  -4.9, -7.8
6) COc1ccc(OC)c(-c2nc(COc3cccnc3C)c(C)o2)c1
  14.9, 3.8
8) CCCCNC(=O)N1CCCC(C(=O)c2cc(C)c(OC)c(C)c2)C1 (centres undefined)
  2.1, -0.8
12) COc1cccc(COC(CN2CCN(C(=O)c3ccc(Cl)nc3)CC2)c2ccc(Cl)cc2)c1 (centres undefined)
  -1.9, 10.7
20) COc1cc(OC)c2c(OC)c(-c3ccc4c(c3)OCO4)c(=O)oc2c1
  -5.2, -7.4
33) COCCN(Cc1ccc(OC)cc1)c1c(C)nc2ccc(C(=O)NCCc3c[nH]c4ccccc34)cn12
  -6.2, -11.8
38) COc1ccc(-c2ccc(NS(=O)(=O)c3cc(C)c(C)cc3C)cc2)nn1
  -1.2, 10.4
40) CCc1ccccc1N1C(=O)CSC1c1ccc(NC(=O)c2cc(OC)cc(OC)c2)cc1 (centres undefined)
  9.6, 9.7

The list goes on.
Fields: NPYLR7 agonist, NPYLR7 agonist max-min
41) CCOc1nc(-c2cccc(C(F)(F)F)c2)n(-c2ccc(NC(=O)Nc3cccc(OC)c3)cc2)n1
  4.9, 11.7
42) O=C(C=Cc1ccc(Br)o1)NC1CCCCCC1
  -4.0, -5.2
43) COc1ccccc1CNC(=O)NC1CCN(C(=O)NC2CCCCC2)CC1
  -0.7, -1.2
44) O=C(NC(c1ccc(F)cc1)c1ccc2ccccc2n1)C1CCN(CCOc2ccc(Br)cc2)CC1 (centres undefined)
  -10.3, -9.2
45) Cc1ccc(-c2nc(NCCNC(=O)c3ccc(F)cc3)c3ccccc3n2)cc1
  5.8, 16.3
46) CCOC(=O)C1CCCCN1CC(=O)N1N=C(c2ccccc2F)CC1c1cc(OC)ccc1OC (centres undefined)
  -0.7, 4.8
47) CC(=O)c1ccc(N=c2oc3cc(O)ccc3cc2C(N)=O)cc1
  -7.7, -13.1
48) O=C(N(c1ccccc1)c1ccccc1)C(F)(F)F
  -6.9, -9.5
49) Clc1nc(N2CCCC2)sc1CNCC1CCN(C2CC2)C1 (centres undefined)
  0.6, -5.8
50) c1c(CN2CCC(n3cnnc3)CC2)nn2c1CNCC2
  8.0, 3.7
51) Fc1ccc(C2c3cccn3CCCN2Cc2ccsc2)c(F)c1 (centres undefined)
  15.2, 13.9
52) Cc1nn(C)c(C)c1CC(=O)NCc1ccccc1Cl
  0.6, -1.4
53) CC(=O)NC1CCN(c2cc(C)c3cc4c(cc3n2)CCC4)CC1
  6.5, 3.1
54) CC(C)(C)NCC(O)COc1cccc2c1CCC(=O)N2 (centres undefined)
  -12.4&-5.5, -0.3&-8.1
55) CCc1cc(S(=O)(=O)Nc2ccccn2)ccc1OC
  -3.5, -3.0
56) O=C(c1ccc(CSc2nccc(C(F)(F)F)n2)cc1)N1C2CCC1CC(Oc1ccc(F)cc1F)C2 (centres undefined)
  13.3, 3.0
57) CCc1ccc[n+](C2=C(c3c(C)[nH]n(-c4ccccc4)c3=O)C(=O)N(C3CCCCC3)C2=O)c1
  1.2, 2.6
58) C#CCN(C)C(=O)c1cnc2c(-c3c(F)cccc3Cl)cnn2c1C
  -5.7, -6.6
59) CCOCCCN(CC(=O)N1CCc2sccc2C1c1ccc(Cl)cc1Cl)S(=O)(=O)c1ccc(NC(C)=O)cc1 (centres undefined)
  20.8, 16.4
60) O=C(c1cn[nH]n1)N(Cc1ccccc1)[C@@H]1CCCC[C@H]1O
  -2.6, -6.7

61. COc1cccc(C(=O)Nc2cc(C)nn2-c2nc(C)c(C)c(=O)[nH]2)c1OC
  NPYLR7 agonist = 10.6
  NPYLR7 agonist max-min = 1.5
62. O=C1OCCC1N1CCOC(c2ccccc2Br)C1 (centres undefined)
  NPYLR7 agonist = 8.9
  NPYLR7 agonist max-min = 5.2
63. C#CCSc1nc(=O)n2ccccc2n1
  NPYLR7 agonist = 1.9
  NPYLR7 agonist max-min = 0.7
64. C#CCn1c(COC)nc2ccccc21
  NPYLR7 agonist = 1.4
  NPYLR7 agonist max-min = 7.2
65. Cc1cccc(C2c3[nH]c4ccccc4c3CCN2C(=O)Cn2cncn2)n1 (centres undefined)
  NPYLR7 agonist = -5.7
  NPYLR7 agonist max-min = -9.3
66. CCOC(=O)N1CCN(CC(O)COc2c(C)cc(C)cc2C)CC1 (centres undefined)
  NPYLR7 agonist = 4.4
  NPYLR7 agonist max-min = 4.8
67. Cc1nc2ncccn2c1C(=O)N1CC[C@@H](c2ccc3c(c2)OCO3)[C@H](O)C1
  NPYLR7 agonist = -4.3
  NPYLR7 agonist max-min = -4.2
68. Cc1ccc(N2CC(C(=O)Oc3coc(CSc4ncccn4)cc3=O)CC2=O)cc1C (centres undefined)
  NPYLR7 agonist = -5.8
  NPYLR7 agonist max-min = 0.3
69. Cc1nc(SCc2ccccc2F)c2c(=O)n(C)c(=O)n(C)c2n1
  NPYLR7 agonist = 8.2
  NPYLR7 agonist max-min = 11.0
70. COC(=O)CCNC(=O)N1CCN(C(=O)OC(C)(C)C)CC1
  NPYLR7 agonist = -0.1
  NPYLR7 agonist max-min = -3.2
71. O=C(/C=C/c1ccoc1)N1CCC2(CC1)Nc1ccccc1S(=O)(=O)N2
  NPYLR7 agonist = 0.9
  NPYLR7 agonist max-min = 25.9
72. COc1cc(NC(=O)C2CCN(c3c(C#N)cnc4ccc(F)cc34)CC2)cc(OC)c1
  NPYLR7 agonist = 0.4
  NPYLR7 agonist max-min = -1.6
73. O=C1CCC[C@H]2[C@@H]3C[C@H](CN(c4ncnc5c4CCC5)C3)CN12
  NPYLR7 agonist = 3.7
  NPYLR7 agonist max-min = 0.9
74. COc1ccc(-n2c(SCc3ccc([N+](=O)[O-])cc3)nc3c(c2=O)SCC3)cc1
  NPYLR7 agonist = 16.9
  NPYLR7 agonist max-min = 16.4
75. CCCNC(=O)C12CC3CC(CC(Br)(C3)C1)C2
  NPYLR7 agonist = 1.0
  NPYLR7 agonist max-min = -1.7

Rewritten in transposed form: part of the list above
(66) CCOC(=O)N1CCN(CC(O)COc2c(C)cc(C)cc2C)CC1 (centres undefined)
(44) O=C(NC(c1ccc(F)cc1)c1ccc2ccccc2n1)C1CCN(CCOc2ccc(Br)cc2)CC1 (centres undefined)
assay / entry	66	44
NPYLR7 agonist	4.4	-10.3
NPYLR7 agonist max-min	4.8	-9.2

The list continues.
76. CCCn1nnnc1NCc1ccc(N(CC)CC)cc1
  NPYLR7 agonist = 0.0
  NPYLR7 agonist max-min = -1.5
77. C[C@@H](C1CCCCC1)n1c(C2CC2)n[nH]c1=O
  NPYLR7 agonist = 0.5
  NPYLR7 agonist max-min = 0.7
78. N#Cc1cccc(Cl)c1NCCc1n[nH]c(=O)[nH]1
  NPYLR7 agonist = 8.0
  NPYLR7 agonist max-min = -5.8
79. COCCN(Cc1csc(COc2cc(Cl)ccc2Cl)n1)C(=O)NC(C)C
  NPYLR7 agonist = 3.2
  NPYLR7 agonist max-min = 13.8
80. O=C(NC1CC2CCC(C1)N2Cc1ccc2c(c1)OCO2)c1cc(F)cc(F)c1 (centres undefined)
  NPYLR7 agonist = 5.9
  NPYLR7 agonist max-min = 3.7
81. CCNS(=O)(=O)c1ccc(C(=O)N2CCCC2c2ccc3c(c2)OCCO3)cc1 (centres undefined)
  NPYLR7 agonist = -1.9
  NPYLR7 agonist max-min = -1.6
82. Cc1cccnc1CN(C)C1CCN(Cc2cccnc2)CC1
  NPYLR7 agonist = -1.6
  NPYLR7 agonist max-min = -1.9
83. CCN1CCCC1CNc1ccc2c(-c3ccccc3F)noc2n1 (centres undefined)
  NPYLR7 agonist = 2.7
  NPYLR7 agonist max-min = 0.1
84. C=CCN(Cc1ccccc1OC)C(=O)C1CCN(C(C)=O)CC1
  NPYLR7 agonist = 5.3
  NPYLR7 agonist max-min = 4.4
85. CCOC(=O)c1c(-c2ccco2)csc1NC(=O)COc1ccc(C(C)=O)cc1
  NPYLR7 agonist = 21.1
  NPYLR7 agonist max-min = 24.8
86. CCC(C)C(=O)NC1CCN(c2ccccc2C(=O)NCc2ccncc2)CC1 (centres undefined)
  NPYLR7 agonist = -3.9
  NPYLR7 agonist max-min = 2.6
87. CS(=O)(=O)N1CCCN(Cc2cc3n(n2)CCNC3)CC1
  NPYLR7 agonist = 8.9
  NPYLR7 agonist max-min = 6.8
88. COc1cccc(CCNC(=O)c2ccc(Nc3cccc(C(F)(F)F)c3)nc2)c1
  NPYLR7 agonist = 3.6
  NPYLR7 agonist max-min = -0.9
